A1 inh: inhibitors of the anti-apoptotic protein A1, read as caspase activation; MEF A1-2A-BIM cells, Caspase-Glo 3/7 luminescence, 3 h; percent of clofoctol response, vehicle zero; caspase activation, % (concentration not given with the values); 330,000 tested, 0.066% active;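 active means over half of replicate activation scores above 10%, or exactly half above 10 with the replicate mean above 10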;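 further: wells of about 30 µL received 50 nL stock; many hits fall short of the cut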
Beta apoptosis: blocks beta cell apoptosis | 300,000 tested, 0.8% active | AID 435005 | INS-1E cytokine-induced death, ATP luminescence, 48 h; percent of positive-control rescue, neutral wells zero | protection from apoptosis, % (no concentration beside the values);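 active means all replicates at 75% or more, or half of them and the mean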;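 further: 0% = cytokine-treated negative control wells and 100% = positive control rescue; higher means more ATP so stronger rescue from cytokine killing; wells of about 40 µL received 100 nL stock; the first replicate is given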
T cruzi inh: blocks replication of Trypanosoma cruzi; T. cruzi beta-gal in NIH3T3, luminescence, 90 h; inhibition, % (concentration not given with the values); 300,000 tested, 1.4% active; AID 1885;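 active means mean inhibition across valid replicates above about 55%, limit read from the data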;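 further: signal also drops with host cell toxicity which is not excluded here; 0% = plate median of DMSO wells and 100% = zero luminescence signal; higher percent means less beta-gal luminescence so fewer parasites; stock transfer was 50 nL into about 50 µL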
UCH37 inh: human UCH37 deubiquitinating enzyme inhibition; 330,000 tested, 0.33% active; AID 588478; inhibition, % (no concentration beside the values); Q9Y5K5; purified proteasome/UCH37, Ub-AMC cleavage fluorescence;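 active means mean of two replicates above 20%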;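 further: 0% = compound-free wells with enzyme and 100% = wells lacking proteasome; stock transfer was 100 nL into about 20 µL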
Target sequence (Q9Y5K5 whole entry, looked up): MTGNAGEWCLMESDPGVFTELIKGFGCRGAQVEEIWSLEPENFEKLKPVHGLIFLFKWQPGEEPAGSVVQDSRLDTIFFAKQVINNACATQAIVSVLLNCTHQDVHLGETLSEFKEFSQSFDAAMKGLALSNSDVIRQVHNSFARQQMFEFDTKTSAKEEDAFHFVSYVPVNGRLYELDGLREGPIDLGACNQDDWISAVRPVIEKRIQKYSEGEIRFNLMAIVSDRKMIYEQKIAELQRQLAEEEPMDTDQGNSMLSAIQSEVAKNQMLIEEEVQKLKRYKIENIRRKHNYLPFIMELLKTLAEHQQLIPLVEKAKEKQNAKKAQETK
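Assay system: Proteasome-bound UCH37. Buffer or medium: pH 7.4 Tris-HCl (50 mM) with ovalbumin, ATP-MgCl2, DTT. Incubation: 30 min preincubation with enzyme, 25 min cleavage at room temperature. Measured by: fluorescence, ex 355 nm, em 460 nm. Read-out basis: percent inhibition. Control set: wells without proteasome as full block, compound-free enzyme plus substrate as uninhibited.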
LANA-H2B inh: blocks KSHV LANA binding to histone H2A/H2B; 320,000 tested, 0.6% active; cell-free LANA-H2A/H2B peptide, fluorescence polarization; Q9QR71; inhibition, % (no concentration beside the values); AID 2629; in the data active means inhibition mostly above about 10%, no sharp cut-off; inactive means mostly below about 6.7%;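 further: stock transfer was 7.5 nL into about 10 µL; 0% = median of vehicle wells and 100% = median of positive control wells; one replicate is shown; the record names a cut of 25% in any replicate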
B2AR ag: human beta-2 adrenergic receptor agonism by FAP; Am2.2-beta2AR cells, FAP receptor internalization, flow cytometry; reference of the scale not given here; response, % (concentration not given with the values); 340,000 tested, 0.43% active; AID 504454; P07550;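 active means response above a set limit, near 3 SD of response in nonfluorescent compounds, cut at about 42% in these data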;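 further: stock transfer was 100 nL into about 11 µL; a reference agonist was the positive control; negative values mostly stem from fluorescent compounds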
Target sequence (P07550 whole entry, looked up): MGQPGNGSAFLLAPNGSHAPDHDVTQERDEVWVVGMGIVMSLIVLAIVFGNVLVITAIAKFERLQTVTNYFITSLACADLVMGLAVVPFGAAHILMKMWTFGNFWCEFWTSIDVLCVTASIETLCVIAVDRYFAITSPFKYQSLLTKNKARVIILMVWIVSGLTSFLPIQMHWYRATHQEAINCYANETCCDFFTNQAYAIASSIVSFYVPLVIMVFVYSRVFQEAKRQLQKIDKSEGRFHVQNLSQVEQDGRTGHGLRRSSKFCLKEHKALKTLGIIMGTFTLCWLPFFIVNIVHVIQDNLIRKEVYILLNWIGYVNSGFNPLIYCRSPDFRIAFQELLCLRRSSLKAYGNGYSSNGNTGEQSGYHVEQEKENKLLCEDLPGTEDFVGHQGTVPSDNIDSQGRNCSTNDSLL
Calb FLC: C. albicans growth modulation with fluconazole. 300,000 tested, 0.57% active. growth inhibition, % (no concentration beside the values). C. albicans CaCi-2 (fluconazole-resistant clinical isolate) + fluconazole, Alamar Blue growth, 48 h;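 active means most replicates above 75%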;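 further: all wells also contain fluconazole at 8 µg/ml as a sub-toxic cotreatment; 0% = median of DMSO wells and 100% = median of geldanamycin control wells; wells of about 8 µL received 7.5 nL stock; the first replicate is given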
RanGTP-Imp inh: disruptors of Ran-importin-beta complex formation – biochemical, FRET, CFP-Ran, YFP-importin-beta, homogeneous, primary screen; cell-free CFP-Ran/YFP-importin-beta FRET ratio; inhibition, % (concentration not given with the values); 300,000 tested, 1.1% active;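 active means most replicates above 15%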;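 further: 0% = DMSO wells and 100% = Ran loaded with GDP instead of GTP; wells of about 40 µL received 100 nL stock; the first replicate is given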
Numbers without * were called inactive.

Screening Cc1ccc(-n2[nH]c(C)c(C=Nc3ccc(S(=O)(=O)Nc4nccs4)cc3)c2=O)cc1C returned A1 inh -0.5, Beta apoptosis 36, T cruzi inh -5, UCH37 inh 6.9, LANA-H2B inh 3.2, B2AR ag 25, Calb FLC -14 and RanGTP-Imp inh -0.4.
For COc1ccccc1OCCCC(=O)Nc1nnc(C2CCCO2)s1 (stereo not given) the results were A1 inh -0.4, Beta apoptosis 1, T cruzi inh 5, UCH37 inh -0.3, LANA-H2B inh 2.1, B2AR ag 10, Calb FLC 5 and RanGTP-Imp inh -1.8.
Screening Cc1c(C(=O)Nc2ccccc2F)sc2ncn(CC(=O)N3CCCCC3)c(=O)c12 returned A1 inh 0.1, Beta apoptosis -1, T cruzi inh 25, UCH37 inh 4.7, LANA-H2B inh -1.5, B2AR ag -6, Calb FLC -1 and RanGTP-Imp inh -2.8.
Screening CC(C)(C)NNC(=S)Nc1cccc(C(F)(F)F)c1 returned A1 inh -0.3, Beta apoptosis -5, T cruzi inh -60, UCH37 inh 3.1, LANA-H2B inh -1.0, B2AR ag -7, Calb FLC -12 and RanGTP-Imp inh -0.8.
CN(C(=O)CN1C(=O)/C(=C/c2ccccc2Cl)SC1=S)C1CCS(=O)(=O)C1 (stereo not given) was read as A1 inh -0.3, Beta apoptosis -11, T cruzi inh -1, UCH37 inh 5.6, LANA-H2B inh -6.8, B2AR ag 2, Calb FLC 2 and RanGTP-Imp inh 2.0.
For CCc1sc(C(=O)NCc2cc(C)n(C)n2)cc1Br the results were A1 inh 0.2, Beta apoptosis -3, T cruzi inh -11, UCH37 inh 1.5, LANA-H2B inh -0.7, B2AR ag -1, Calb FLC 15 and RanGTP-Imp inh -3.1.
COC(=O)[C@@]1(Cc2ccc(OC)cc2)[C@@H]2C(=CC(=O)[C@H]2CC(=O)C(=O)N2CCCC2)CN1C(=O)c1ccccc1 was read as A1 inh 0.0, Beta apoptosis -16, UCH37 inh 0.4, LANA-H2B inh 4.8 and B2AR ag 17.
For CCN(CC)S(=O)(=O)c1ccc2[nH]cc(C(=O)NCCc3ccccc3)c(=O)c2c1 the results were A1 inh -0.6, Beta apoptosis 15, T cruzi inh 13, UCH37 inh -0.9, LANA-H2B inh -2.9, B2AR ag 6, Calb FLC -3 and RanGTP-Imp inh 7.2.
For COC(=O)C1=NN(C(=O)c2ccc(C)cc2)C(O)(c2ccc(Cl)cc2)C1 (stereo not given) the results were A1 inh -0.3, Beta apoptosis -1, T cruzi inh 7, UCH37 inh 2.1, LANA-H2B inh 0.3, Calb FLC -3 and RanGTP-Imp inh -0.3.
For Cc1ncc(CO)c2cc(C(=O)Nc3ccccc3Cl)c(=Nc3cccc(C(N)=O)c3)oc12 the results were A1 inh -0.4, Beta apoptosis 5, T cruzi inh 5, UCH37 inh 3.1, LANA-H2B inh -3.4, B2AR ag -2, Calb FLC 15 and RanGTP-Imp inh -1.5.
For COc1ccccc1/C=C/C(=O)Nc1ccc2c(c1)CCC2 the results were A1 inh -1.0, Beta apoptosis -3, T cruzi inh 8, UCH37 inh 2.7, LANA-H2B inh 1.2, B2AR ag 3, Calb FLC 0 and RanGTP-Imp inh 1.6.
Cn1c2c(c(=O)n(C)c1=O)CN(Cc1ccc3c(c1)OCO3)CN2 was read as A1 inh 1.5, Beta apoptosis -6, T cruzi inh 3, UCH37 inh 2.7, LANA-H2B inh -2.4, B2AR ag 5, Calb FLC -7 and RanGTP-Imp inh -2.0.
NC(=O)c1ncc(C(F)(F)F)cc1Oc1cccc(C(F)(F)F)c1 was read as A1 inh -0.1, Beta apoptosis -6, T cruzi inh -10, UCH37 inh 1.2, LANA-H2B inh 2.6, B2AR ag 1, Calb FLC -25 and RanGTP-Imp inh -1.2.
Screening COCCCn1c(SCC(=O)Nc2cccc(C)n2)nnc1-c1ccco1 returned A1 inh -0.5, Beta apoptosis -5, T cruzi inh 1, UCH37 inh 6.1, LANA-H2B inh -3.4, B2AR ag -2 and RanGTP-Imp inh 0.0.
Screening CSc1nsc(SC)c1C(=O)NCCNS(=O)(=O)c1ccc(C)cc1 returned A1 inh -0.3, Beta apoptosis 3, T cruzi inh 1, UCH37 inh -0.2, LANA-H2B inh 0.9, B2AR ag -4, Calb FLC 1 and RanGTP-Imp inh -2.5.
For CC(=O)NS(=O)(=O)c1ccc(NC(=O)CSc2ccc(C)cc2)cc1 the results were A1 inh -0.3, T cruzi inh -11, UCH37 inh 0.2, LANA-H2B inh -6.5, B2AR ag 6, Calb FLC -9 and RanGTP-Imp inh -3.1.
`Cc1cc(C)c(S(=O)(=O)N2CCOCC2)c(C)c1N(C)S(=O)(=O)c1ccccc1` gave A1 inh -0.2, Beta apoptosis -13, T cruzi inh 16, UCH37 inh 0.7, LANA-H2B inh -2.3, B2AR ag -1, Calb FLC -1 and RanGTP-Imp inh 0.3.
`COc1ccc(CCNCCN2CCOCC2)cc1` gave A1 inh -1.5, T cruzi inh 0, UCH37 inh 2.9, LANA-H2B inh -2.3, B2AR ag 1, Calb FLC 3 and RanGTP-Imp inh -1.4.
For C=CCNC(=O)/C(C#N)=C/c1ccc2c(c1)OCCO2 the results were A1 inh 0.1, Beta apoptosis -5, T cruzi inh -10, UCH37 inh 3.2, LANA-H2B inh -0.4, B2AR ag 3, Calb FLC 2 and RanGTP-Imp inh -0.2.
`COc1ccccc1OC(C)C(=O)N1CC(=O)Nc2ccccc21` (stereo not given) gave A1 inh 0.1, Beta apoptosis -3, T cruzi inh -11, UCH37 inh 4.3, LANA-H2B inh -3.9, B2AR ag 0, Calb FLC 3 and RanGTP-Imp inh 2.0.
`COc1ccccc1C(=O)OCC#CCSc1nnc(-c2cccc3ccccc23)o1` gave A1 inh -1.4, Beta apoptosis -6, UCH37 inh -1.4, LANA-H2B inh 1.2 and B2AR ag -16.
`O=C(C1CC(=O)N(c2ccccc2)C1)N1CCN(c2ccccc2)CC1` (stereo not given) gave A1 inh -0.3, Beta apoptosis -2, T cruzi inh 4, UCH37 inh 2.1, LANA-H2B inh 0.6, B2AR ag 8, Calb FLC 3 and RanGTP-Imp inh 1.5.
For COc1ccc(-c2nc(C#N)c(NCc3ccco3)o2)cc1 the results were A1 inh 0.4, Beta apoptosis -23, T cruzi inh 5, UCH37 inh -39, LANA-H2B inh 3.6, B2AR ag -13, Calb FLC 22 and RanGTP-Imp inh 2.8.
Screening CS(=O)(=O)c1nc(S(=O)(=O)c2ccc(Cl)cc2)c(N2CCN(CCO)CC2)s1 returned A1 inh -0.5, Beta apoptosis -16, T cruzi inh -15, UCH37 inh 5.6, LANA-H2B inh 1.0, B2AR ag -11, Calb FLC -18 and RanGTP-Imp inh -2.6.
`COc1ccc(C2=Nn3c(nnc3-c3ccccc3F)SC2)cc1OC1CCOC1` (stereo not given) gave A1 inh -1.0, Beta apoptosis 10, UCH37 inh 3.5, LANA-H2B inh 5.5 and B2AR ag 19.
`O=C1c2ccccc2S(=O)(=O)c2cc(C(=O)N(c3ccccn3)c3ccccn3)ccc21` gave A1 inh -0.9, Beta apoptosis 0, T cruzi inh -4, UCH37 inh 3.5, LANA-H2B inh 1.9, B2AR ag -1, Calb FLC 11 and RanGTP-Imp inh 5.9.
`Cc1cc(-c2n[nH]c(=S)n2Cc2ccccc2)cs1` gave A1 inh 0.8, Beta apoptosis 7, T cruzi inh 0, UCH37 inh 2.0, LANA-H2B inh -4.6, B2AR ag -5, Calb FLC 34 and RanGTP-Imp inh 1.0.
Screening O=C(/C=C\c1ccc2c(c1)OCO2)CC1(O)C(=O)Nc2ccccc21 (stereo not given) returned A1 inh 0.3, Beta apoptosis -12, T cruzi inh -10, UCH37 inh 3.7, LANA-H2B inh 7.9, B2AR ag 6, Calb FLC -41 and RanGTP-Imp inh -5.0.
CCOC(=O)NC(Nc1sc2c(c1C(N)=O)CCCC2)(C(=O)OCC)C(F)(F)F (stereo not given) was read as A1 inh 0.2, Beta apoptosis -5, T cruzi inh -4, UCH37 inh -1.3, LANA-H2B inh -2.1, B2AR ag -4, Calb FLC 0 and RanGTP-Imp inh -1.4.
For O=C(NCc1ccc(F)cc1)C1CC(=O)N(CCc2ccccc2)C1 (stereo not given) the results were A1 inh 0.2, Beta apoptosis -1, T cruzi inh -16, UCH37 inh 0.8, LANA-H2B inh -0.3, B2AR ag -8, Calb FLC 4 and RanGTP-Imp inh 4.1.
For CCOC(=O)Cn1c(=O)cc(C)c2ccccc21 the results were A1 inh 0.7, Beta apoptosis -5, T cruzi inh -8, UCH37 inh 3.3, LANA-H2B inh 1.9, B2AR ag 0, Calb FLC -6 and RanGTP-Imp inh 3.1.
Screening COc1ccc(-c2csc(NC(=O)Cc3cc(OC)c(OC)c(OC)c3)n2)cc1OC returned A1 inh 0.3, T cruzi inh -7, UCH37 inh -0.2, LANA-H2B inh -6.4, B2AR ag 9, Calb FLC -4 and RanGTP-Imp inh -0.5.
`CCCCOC(=O)CSc1nnc(-c2ccc(Cl)cc2Cl)o1` gave A1 inh 0.3, Beta apoptosis -5, T cruzi inh -2, UCH37 inh -3.4, LANA-H2B inh -6.9, B2AR ag -8, Calb FLC -6 and RanGTP-Imp inh -6.1.
`Cc1ccc(OCc2nc(C#N)c(N3CCCCC3)o2)cc1` gave A1 inh 0.6, Beta apoptosis 0, T cruzi inh 3, UCH37 inh 3.7, LANA-H2B inh -6.2, B2AR ag 9, Calb FLC -36 and RanGTP-Imp inh -0.1.
Screening S=C(Nc1ccc(-c2nc3ccccc3[nH]2)cc1)Nc1cccnc1 returned A1 inh -3.0, Beta apoptosis 14, T cruzi inh -14, UCH37 inh -9.0, LANA-H2B inh -6.1, B2AR ag -3, Calb FLC 2 and RanGTP-Imp inh -6.3.
For COc1ccccc1NS(=O)(=O)c1cc(NC(=O)C2CCC2)ccc1N1CCCCC1 the results were A1 inh 0.1, Beta apoptosis 37, T cruzi inh 57*, UCH37 inh 2.1, LANA-H2B inh -6.3, B2AR ag -2, Calb FLC 6 and RanGTP-Imp inh 0.5.
Screening Clc1ccc(-n2nnc(-c3cccnc3Cl)n2)cn1 returned A1 inh -2.0, Beta apoptosis 2, T cruzi inh -3, UCH37 inh 0.6, LANA-H2B inh -0.2, B2AR ag -6, Calb FLC 0 and RanGTP-Imp inh 5.2.
Screening O=C1CCC2CCCCC2(O)O1 (stereo not given) returned A1 inh -0.9, Beta apoptosis -5, T cruzi inh -13, UCH37 inh 3.6, LANA-H2B inh 4.0, B2AR ag -1, Calb FLC 0 and RanGTP-Imp inh 1.4.
For CCN(C(=O)C12CC3CC(CC(C3)C1)C2)C1CCS(=O)(=O)C1 (stereo not given) the results were A1 inh -0.2, Beta apoptosis -3, T cruzi inh -1, UCH37 inh 4.9, LANA-H2B inh -1.4, B2AR ag -6, Calb FLC 1 and RanGTP-Imp inh -3.2.
CC(Sc1nc(-c2ccccc2)cs1)C(=O)Nc1ccc(Cl)cn1 (stereo not given) was read as A1 inh -2.4, Beta apoptosis -7, T cruzi inh -5, UCH37 inh 1.7, LANA-H2B inh -3.8, B2AR ag -1, Calb FLC 2 and RanGTP-Imp inh 0.5.

This is a random part of the collection. About 4.3% of those tested had a hit in this group.
